Screens as filed in PubChem BioAssay.
TRPML1 ag: activates the human TRPML1 channel; TRPML1-expressing cells, Ca2+ dye fluorescence, FDSS; host cell line not named in the record; reference of the full effect not given here; activation, % (test concentration not listed); actives 0.12% (n = 410,000); AID 624414; in the data active = activation above about 50%; inconclusive = about 30% to 50%; inactive = below about 30%; note: 0% is about no effect; the text of the record puts the active cut at 80%
Target sequence (Q9GZU1 whole entry, looked up): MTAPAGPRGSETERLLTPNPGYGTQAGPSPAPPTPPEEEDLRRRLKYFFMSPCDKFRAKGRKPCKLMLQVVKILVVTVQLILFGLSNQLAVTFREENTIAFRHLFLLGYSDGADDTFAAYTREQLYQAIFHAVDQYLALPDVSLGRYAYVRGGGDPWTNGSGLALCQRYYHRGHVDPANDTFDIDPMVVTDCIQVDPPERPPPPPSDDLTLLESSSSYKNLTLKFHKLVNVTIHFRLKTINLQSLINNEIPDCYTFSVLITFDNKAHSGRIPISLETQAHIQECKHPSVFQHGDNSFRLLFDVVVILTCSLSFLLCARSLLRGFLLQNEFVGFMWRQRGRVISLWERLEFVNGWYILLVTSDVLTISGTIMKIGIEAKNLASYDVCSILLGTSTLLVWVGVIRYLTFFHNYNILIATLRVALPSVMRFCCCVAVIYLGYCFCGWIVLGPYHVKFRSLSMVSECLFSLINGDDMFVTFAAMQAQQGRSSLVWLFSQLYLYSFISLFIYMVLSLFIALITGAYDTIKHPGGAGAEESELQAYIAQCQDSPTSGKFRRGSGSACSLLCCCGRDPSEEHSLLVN
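Kinetic FDSS Ca2+ read in Tet-induced TRPML1-DL cells (ABD Ca8 dye plus quencher, 45-90 min RT loading): baseline, then compound, then 110 s agonist window; EC80 agonist 54-4 at 4uM final added afterwards for a 110 s antagonist window.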
PINK1 expr mod: modulators of PINK1 expression; PINK1 immunofluorescence, high-content cytometry, 24 h; AID 624263; actives 0.2% (n = 410,000); Potency, µM (doses to about 76.6 µM), inactives show top-dose activation (PINK1 increase), usual class: activators; active = well fitted activation curve with a large enough effect; inconclusive = small, poorly fitted or top-dose-only effect; inactive = flat fitted curve, though single readings scatter; cell line not stated here;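 note: potency is the fitted concentration of half-maximal effect; % of control where 0% means no effect; nearly all actives have a fitted effect of over 65% in size; a mitochondrial uncoupler was the plate control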
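PINK1 protein level read as immunofluorescence by microplate cytometer in a fixed, stained stable cell line after 24 h exposure to five compound concentrations, with CCCP as control.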
* marks the source's active call; other numbers are inactive results; ? = inconclusive; & = joins results of further samples. Only part of the results is shown; the hit share may differ from the screen's.

SMILES	TRPML1 ag	PINK1 expr mod
O=C(CCC1N=C2c3ccccc3N=C(SCC(=O)Nc3cccc(Cl)c3)N2C1=O)NCc1ccco1 (stereo not drawn)	0.7	1.0%
COc1cccc(N2CCN(S(=O)(=O)c3cc(-c4cc(C)no4)ccc3C)CC2)c1	-0.9	-1.2%
COc1cc(NC(=O)CN2C(=O)C(c3ccc(C)cc3)=NC23CCCCC3)cc(OC)c1	1.3	0.6%
Cc1ccc(NC(=O)C2CCCN(c3ncnc4onc(-c5ccc(F)cc5)c34)C2)c(Cl)c1 (stereo not drawn)	0.8	0.3%
Cc1ccc(C)c(CN2CCC(CNC(=O)Cn3ncc4c([nH]c5ccccc54)c3=O)CC2)c1	2.4	3.7%
COc1ccc(CCNC(=O)CCCn2c(=O)c3ccccc3n(CC(=O)Nc3ccc(C)cc3Cl)c2=O)cc1OC	0.7	0.5%
COc1ccc(NC(=O)C2CCN(S(=O)(=O)c3ccc4[nH]c(=O)ccc4c3)CC2)cc1Cl	0.6	-2.7%
CCc1ccccc1NC(=O)C1=C(C)C(=O)OC12CCCCCC2	-0.4	0.3%
O=C(CSc1nc2c(c(=O)[nH]1)CN(Cc1ccc3c(c1)OCO3)CC2)Nc1cccc(Cl)c1	-0.3	-0.1%
COc1cccc(CNC(=O)Cn2ncc3c4ccccc4n(C)c3c2=O)c1	1.7	2.9%
Cc1cccc(CN2C(=O)N(c3ccc(C(C)C)cc3)S(=O)(=O)c3ccccc32)c1	-0.5	-0.7%
CCOC(=O)c1sc2ccccc2c1S(=O)(=O)Nc1cccc(C(F)(F)F)c1	2.3	?
COc1cccc(C(=O)Nc2nc3nc(C)c(C)c(=O)n3[nH]2)c1	2.6	-0.4%
O=C(NC1CCCC1)c1ccc2c(c1)N(Cc1ccccc1Cl)C(=O)c1ccccc1S2	3.4	-0.7%
CCOc1nc(NC(=O)NS(=O)(=O)Oc2cccc(F)c2)nc(-c2ccccc2)n1	2.4	-1.1%
Cc1ccc(Nc2c(-c3cc(Br)ccc3F)nc3cc(C)ccn23)cc1	3.4	10%
CCOC(=O)c1[nH]c(C)c(CCC(=O)Nc2ccccc2C(=O)OC)c1C	0.2	11%
COc1cccc(C(=O)Nc2ccc(-c3cn4cccnc4n3)cc2)c1OC	-0.8	0.2%
Cc1ccc2nc(NC(=O)c3ccc(S(=O)(=O)N4CCC(C)CC4)cc3)sc2c1	0.5	-3.1%
COc1ccc(NC(=O)Cn2c(=O)n(Cc3ccc(C(=O)NCc4ccccc4Cl)cc3)c(=O)c3ccccc32)cc1OC	-0.2	3.6%
CCCCN(CC)CCCNC(=O)c1c(C)oc2ncnc(N3CCOCC3)c12	0.9	-14%
Cc1ccc(C(=O)c2oc3ccccc3c2NC(=O)c2nc(S(C)(=O)=O)ncc2Cl)cc1F	0.4	0.6%
Cc1cccc(NC(=O)Cn2c(C(F)(F)F)nc3ccccc32)c1C	2.2	1.1%
Cc1nn(CC(=O)N2CCN(c3ccccc3F)CC2)c(=O)c2cccn12	0.5	-0.8%
CCc1ccccc1Nc1cc(C(=O)NC(C)c2ccccc2)c2ccccc2n1 (stereo not drawn)	2.2	4.9%
CC1=C(C(=O)Nc2ccc(C)cc2C)C(c2ccc(O)cc2)n2nnnc2N1 (stereo not drawn)	-0.2	1.4%
CCc1c(C)sc2c1CCN(C(=O)Nc1cc(C)ccc1C)C2c1ccc(OC)cc1 (stereo not drawn)	-0.3	0.1%
COc1ccc(Nc2cc(C(=O)NCc3ccccc3)c3ccccc3n2)cc1	3.2	4.4%
CCc1nnc2c(NCc3ccccc3)nc3ccccc3n12	0.7	-0.9%
COc1ccc(-c2cc3ccc(O)c(CN4CCC(C)CC4)c3oc2=O)cc1	-0.1	-0.3%
COc1ccc(OCC(=O)N2CCC(c3nc4ccccc4s3)CC2)cc1	-1.4	0.4%
CCc1ccc(NC(=O)c2sc3nc(C)c(Cl)c(C)c3c2NC(=O)c2ccccc2)cc1	0.7	-0.4%
COc1ccc(C2=C(C)C(=O)N(Cc3ccc(C(=O)Nc4ccc(F)cc4C)cc3)S2(=O)=O)cc1	2.8	8.6%
Cc1ccc(OCC(=O)OCc2cc(=O)n3nc(C4CC4)sc3n2)cc1	1.0	-0.9%
Cc1cccc(N2CC(C)Cn3c2nc2c3c(=O)n(CC(=O)O)c(=O)n2C)c1 (stereo not drawn)	-0.4	1.0%
COc1cccc(NC(=O)c2nnn(Cc3cccc(C(F)(F)F)c3)c2N)c1	1.9	7.6%
CCCCc1nn2c(=O)cc(COC(=O)c3ccc(NC(=O)c4ccccc4C)cc3)nc2s1	0.7	-0.3%
O=C(NC1CCCCC1)c1ccc(CSc2nc3cccnc3n2Cc2cccc(F)c2)cc1	0.2	23%
O=C(Nc1nc2ccc(S(=O)(=O)N3CCCC3)cc2s1)c1ccc(F)cc1	1.5	-1.3%
COc1cc2c(=O)c(S(=O)(=O)c3ccc(C(C)C)cc3)cn(Cc3ccccc3C)c2cc1OC	0.4	0.8%
Cc1ccc(S(=O)(=O)N2CCC(c3nc(-c4cccs4)nc4ccccc34)CC2)cc1	-0.4	0.5%
COC(=O)c1ccc(NS(=O)(=O)c2ccc(-n3cccn3)cc2)cc1	1.8	0.5%
COc1cccc(C(c2sc3nc(-c4ccco4)nn3c2O)N2CCOCC2)c1 (stereo not drawn)	4.3	5.5%
O=C(Nc1ccc(OCc2cc(=O)n3ccccc3n2)cc1)c1ccccc1Cl	0.3	13%
O=C(CCCCn1c(=O)c2ccccc2n(Cc2cccc(F)c2)c1=O)NCc1ccc2c(c1)OCO2	-1.2	8.8%
CC1=C(c2ccc(Cl)cc2)S(=O)(=O)N=C1N1CCN(c2cccc(C(F)(F)F)c2)CC1	1.5	1.4%
COc1ccc(OC)c(NC(=O)c2cnn(-c3ccc(C)cc3)c2C2CCNCC2)c1	-0.2	-4.2%
Cc1ccnc2ccccc12	-0.5	0.9%
Cc1nc(-c2ccc(S(=O)(=O)Nc3ccc(C)c(N(C)C)c3)cc2)co1	1.7	-3.6%
O=C(Cn1c(=O)oc2cc(S(=O)(=O)N3CCCCC3)ccc21)NCc1ccc(F)cc1	5.8	-0.6%
CCOc1ccc(N(C)C(=O)c2oc(=O)c3ccccc3c2-c2ccccc2)cc1	1.8	1.2%
CCOc1ccc(NC(=O)c2cc(=O)c3ccc(C)c(C)c3o2)cc1	-0.7	2.3%
Cc1cc(C)c(NC(=O)Cn2nnc(-c3nc(-c4ccccc4)no3)c2N)c(C)c1	0.4	0.7%
CCCCN1CC(c2nc3ccccc3n2CCCCOc2c(C)cccc2C)CC1=O (stereo not drawn)	1.5	21%
COc1cc(Cl)c(C)cc1NC(=O)CSc1ncc(S(=O)(=O)c2ccc(C(C)(C)C)cc2)c(=O)[nH]1	-0.8	2.8%
Cc1ccc(Cn2c(=O)n(-c3cc(C)cc(C)c3)c(=O)c3oc4ccccc4c32)cc1	0.0	0.7%
CCc1cccc(NC(=O)c2sc3nc[nH]c(=O)c3c2C)c1	0.6	3.9%
Cc1ccc(-c2nc(CSc3nnc(C)n4c3cc3occc34)c(C)o2)cc1	-0.3	3.3%
COc1ccc2c(c1)c1c(c(=O)n(Cc3ccccc3)c(=O)n1CC(=O)Nc1c(C)cccc1C)n2C	-0.3	-1.1%
Cc1ccc(-n2nc3c(=O)n(CC(=O)NCC(C)c4ccccc4)nc(C)c3c2C)cc1 (stereo not drawn)	2.2	1.3%

Following part
SMILES	TRPML1 ag	PINK1 expr mod
Cc1ccc(Nc2nc(C)c(NC(=O)c3ccc(C)cc3)c(Nc3ccc(C)cc3)n2)cc1	1.4	3.6%
Cc1ccc(C)c(Cn2c(=O)c3c(nc4n3CCN4c3ccccc3)n(C)c2=O)c1	-0.7	-0.4%
COc1ccc(-n2nc(C(=O)NCCc3ccc(Cl)cc3)c3c4ccccc4n(C)c3c2=O)cc1Cl	-0.7	0.4%
COc1cc2c(cc1OC)C(COc1ccc3c(C)cc(=O)oc3c1)N(C(=O)c1cc(Cl)ccc1OC)CC2 (stereo not drawn)	-0.5	-0.1%
Cn1c(Oc2ccc(Cl)cc2)nc2c1c(=O)n(Cc1ccc(F)cc1)c(=O)n2C	-0.1	0.1%
Cc1ccc(CNC(=O)c2ccc3c(c2)c(C)c(C)n3Cc2ccccc2)o1	2.0	4.4%
Nc1cc(C(F)(F)F)ccc1S(=O)(=O)Nc1cccc2c1NCCC2	0.7	3.5%
Cc1ccc(S(=O)(=O)N2CCN(c3nc(-n4cnc5ccccc54)nc4ccccc34)CC2)cc1	-0.2	0.3%
CCOC(=O)c1[nH]c2ccccc2c1NC(=O)c1ccccc1F	0.2	6.3%
COc1ccc(CNC(=O)Cn2ccc3cc(S(=O)(=O)N4CCCCCC4)ccc32)cc1OC	-0.8	-0.6%
CCN(CC)C(=O)Cn1c(=O)n(-c2ccc(Cl)c(Cl)c2)c(=O)c2c(C)c(C(=O)N(CC)CC)sc21	1.8	0.6%
Cc1ccc(-n2nnc(-c3nc(-c4cccs4)no3)c2N)c(C)c1	-0.5	0.5%
Cc1ccc(C)c(NC(=O)N2CCC(CN3CCOCC3)CC2)c1	0.3	0.0%
O=C(CC1N=C2c3ccccc3N=C(SCc3ccccc3F)N2C1=O)NCc1cccs1 (stereo not drawn)	-0.7	1.4%
C(/Oc1ccccc1)=C1\Nn2c(nnc2-c2cc(-c3ccccc3)n[nH]2)S1	-0.5&-0.5	1.0%&0.1%
CCCNC(=O)Cn1nc(-c2ccc(C)c(C)c2)c2cnc3ccc(F)cc3c21	-0.2	2.0%
COc1ccccc1N1CCN(S(=O)(=O)c2c(C)sc3ncn(CC(=O)N(C)c4ccc(C(C)C)cc4)c(=O)c23)CC1	-0.2	1.9%
CC(=O)C1=C(c2ccc(Cl)c(Cl)c2)N(C(C)=O)n2c(nnc2-c2ccccc2)S1	0.7	2.2%
COc1ccccc1NC(=O)c1oc2ccccc2c1NC(=O)COc1cccc(C)c1	-0.1	0.9%
O=C(c1ccc2c(c1)N(Cc1cccc(Cl)c1)C(=O)c1ccccc1S2=O)N1CCN(c2cccc(C(F)(F)F)c2)CC1 (stereo not drawn)	1.3	1.2%
CCOC(=O)c1ccc(N2C(=O)c3n[nH]c(-c4cccs4)c3C2c2ccc(OCC)cc2)cc1 (stereo not drawn)	1.0	13%
Cc1coc2c(C)c3oc(=O)c(CCC(=O)N4CCCCC4)c(C)c3cc12	-0.1	1.0%
CCOC(=O)c1ccc(N2C(=O)c3n[nH]c(-c4ccco4)c3C2c2ccc(OCC)cc2)cc1 (stereo not drawn)	0.5	?
Cc1cc(Nc2ccc(C)c(Cl)c2)n2nc(Cc3ccccc3)nc2n1	1.4	2.1%
CCCCNc1ccc(-c2nc(-c3ccccc3)no2)cc1[N+](=O)[O-]	-0.9	0.1%
COc1ccc(C(=O)NCc2ccc3c(c2)CCN3C(=O)c2ccc(F)cc2)cc1	1.4	-1.8%
O=C(c1ccc2c(c1)N(Cc1ccccc1)C(=O)c1ccccc1S2(=O)=O)N1CCC(Cc2ccccc2)CC1	0.1	0.3%
CCCc1cc(N2CCN(c3ccccc3)CC2)n2cnnc2n1	0.8	-0.3%
CCCn1c(-c2ccc(S(=O)(=O)N3CCOCC3)cc2)csc1=Nc1ccc(OCC)cc1	-0.5	4.2%
CC(=O)Nc1ccc(S(=O)(=O)NC2(C(F)(F)F)C(=O)Nc3c2c(=O)[nH]c(=O)n3-c2ccc(C)c(C)c2)cc1 (stereo not drawn)	0.0	1.4%
Cc1ccccc1NC(=O)CSc1nc2c(oc3ccccc32)c(=O)n1-c1ccccc1F	1.9	1.4%
COc1ccc(CNC(=O)CN(C)S(=O)(=O)c2ccc3nc(C)sc3c2)cc1	0.3	-1.1%
COc1ccccc1CN1CCN(C2CCN(C(=O)Nc3ccccc3)CC2)C(=O)C1=O	0.5	8.0%

Some of these compounds in order of molar mass, falling:
SMILES	TRPML1 ag	PINK1 expr mod
O=C(c1ccc2c(c1)N(Cc1cccc(Cl)c1)C(=O)c1ccccc1S2=O)N1CCN(c2cccc(C(F)(F)F)c2)CC1 (stereo not drawn)	1.3	1.2%
COc1ccccc1N1CCN(S(=O)(=O)c2c(C)sc3ncn(CC(=O)N(C)c4ccc(C(C)C)cc4)c(=O)c23)CC1	-0.2	1.9%
CC(=O)Nc1ccc(S(=O)(=O)NC2(C(F)(F)F)C(=O)Nc3c2c(=O)[nH]c(=O)n3-c2ccc(C)c(C)c2)cc1 (stereo not drawn)	0.0	1.4%
O=C(c1ccc2c(c1)N(Cc1ccccc1)C(=O)c1ccccc1S2(=O)=O)N1CCC(Cc2ccccc2)CC1	0.1	0.3%
CCOC(=O)c1ccc(N2C(=O)c3n[nH]c(-c4cccs4)c3C2c2ccc(OCC)cc2)cc1 (stereo not drawn)	1.0	13%
Cc1ccccc1NC(=O)CSc1nc2c(oc3ccccc32)c(=O)n1-c1ccccc1F	1.9	1.4%
CC(=O)C1=C(c2ccc(Cl)c(Cl)c2)N(C(C)=O)n2c(nnc2-c2ccccc2)S1	0.7	2.2%
COc1ccccc1CN1CCN(C2CCN(C(=O)Nc3ccccc3)CC2)C(=O)C1=O	0.5	8.0%
COc1ccc(CNC(=O)CN(C)S(=O)(=O)c2ccc3nc(C)sc3c2)cc1	0.3	-1.1%
COc1ccc(C(=O)NCc2ccc3c(c2)CCN3C(=O)c2ccc(F)cc2)cc1	1.4	-1.8%
CCCNC(=O)Cn1nc(-c2ccc(C)c(C)c2)c2cnc3ccc(F)cc3c21	-0.2	2.0%
Cc1cc(Nc2ccc(C)c(Cl)c2)n2nc(Cc3ccccc3)nc2n1	1.4	2.1%
CCCCNc1ccc(-c2nc(-c3ccccc3)no2)cc1[N+](=O)[O-]	-0.9	0.1%
